# c-Myc SMM = binders of human c-Myc, primary screen, biochemical, small molecule microarray, anti-His fluorescence. AID 624141, 2012. hit rate 1.5% among 17,000. His-c-Myc binding. Myc proto-oncogene protein (Homo sapiens), P01106. calls only;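 active means spot fluorescence over background with P-value below 7% in all four replicate spots, showing protein binding; compounds were printed on slides so no solution concentration is given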;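 further: score is binary with 100 for all four spots passing and 0 otherwise; about 2 pmol printed per array spot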
# p53 mut binder = binders of human mutant p53, primary screen, biochemical, small molecule microarray, anti-GST fluorescence | AID 624136, 2012 | hit rate 0.4% among 17,000 | small molecule microarray binding | calls only;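 active means compounds whose four printed spots each glow above background more than chance allows, each with a p-value under 7%; compounds were printed on slides so no solution concentration is given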;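 further: about 2 pmol printed per array spot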
# STAT3 SMM = STAT3 binders, primary screen, biochemical, small molecule microarray, single point, set 2; hit rate 0.2% among 17,000; His-STAT3 binding, anti-His fluorescence; Signal transducer and activator of transcription 3 (Homo sapiens), P40763; calls only;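 active means compounds whose four printed spots each show fluorescence over background unusually high for their array block, chance value under 7%; compounds were printed on slides so no solution concentration is given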;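 further: about 2 pmol printed per array spot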
# Target sequence (P40763 whole entry, looked up): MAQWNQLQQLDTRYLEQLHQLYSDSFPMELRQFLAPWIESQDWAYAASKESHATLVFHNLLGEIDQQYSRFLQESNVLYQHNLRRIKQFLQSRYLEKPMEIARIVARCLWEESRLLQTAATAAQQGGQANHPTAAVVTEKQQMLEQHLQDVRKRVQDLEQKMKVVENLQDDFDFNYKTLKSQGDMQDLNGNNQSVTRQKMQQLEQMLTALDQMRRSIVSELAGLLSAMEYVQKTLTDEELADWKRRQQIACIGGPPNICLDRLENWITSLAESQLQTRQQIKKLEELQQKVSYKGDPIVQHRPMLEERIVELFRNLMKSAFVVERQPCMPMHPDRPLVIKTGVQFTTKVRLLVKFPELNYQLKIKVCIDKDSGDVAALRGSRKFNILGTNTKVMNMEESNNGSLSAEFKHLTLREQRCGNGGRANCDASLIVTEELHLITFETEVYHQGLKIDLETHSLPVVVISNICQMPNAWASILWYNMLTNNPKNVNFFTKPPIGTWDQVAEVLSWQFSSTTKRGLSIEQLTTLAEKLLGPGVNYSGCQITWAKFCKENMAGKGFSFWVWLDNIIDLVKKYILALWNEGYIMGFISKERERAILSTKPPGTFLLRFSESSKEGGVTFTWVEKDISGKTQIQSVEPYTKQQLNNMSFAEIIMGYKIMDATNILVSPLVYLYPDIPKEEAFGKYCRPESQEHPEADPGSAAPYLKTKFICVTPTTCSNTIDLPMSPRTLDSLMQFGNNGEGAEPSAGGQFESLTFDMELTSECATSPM
# ID4 binder = binders of human ID4 protein, primary screen, biochemical, small molecule microarray, single point. Flag-ID4 binding, fluorescence F/B. calls only. hit rate 1.2% among 31,000. AID 624137, 2012;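 active means spot signal over background at p below 0.07 in all four prints; compounds were printed on slides so no solution concentration is given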;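 further: a binder raises fluorescence above local background on the spot; about 2 pmol printed per array spot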
# Target sequence (P47928 whole entry, looked up): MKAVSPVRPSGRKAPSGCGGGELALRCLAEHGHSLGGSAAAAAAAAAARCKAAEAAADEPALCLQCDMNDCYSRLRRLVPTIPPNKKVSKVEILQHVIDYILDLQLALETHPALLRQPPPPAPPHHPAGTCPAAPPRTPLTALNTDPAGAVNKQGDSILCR
# Calls only; i = inactive; / = not tested or not shown; + = active, no number. Not all compounds are listed. The share of hits here may be higher or lower than overall.
smiles | p53 mut binder | STAT3 SMM | ID4 binder | c-Myc SMM
C[C@H]1CN([C@@H](C)CO)C(=O)Cc2cc(NC(=O)CCN3CCOCC3)ccc2O[C@H]1CN(C)C(=O)Nc1ccccc1 | i | i | i | i
C[C@H](CO)N1C[C@H](C)[C@H](CN(C)S(=O)(=O)c2cn(C)cn2)Oc2c(NC(=O)Nc3cccc4ccccc34)cccc2C1=O | i | i | i | i
C[C@H](CO)N1C[C@H](C)[C@@H](CN(C)C(=O)Nc2ccc(C(F)(F)F)cc2)Oc2c(NC(=O)C3CCOCC3)cccc2C1=O | i | i | i | i
O[C@H]1[C@H]2c3cc4c(cc3CN3CCC(=C[C@@H]1O)[C@H]23)OCO4 | i | i | / | i
C[C@@H]1CN([C@@H](C)CO)C(=O)c2cc(NC(=O)Cc3ccccc3)ccc2O[C@@H](C)CCCCO[C@@H]1CN(C)C(=O)c1ccncc1 | i | i | i | i
C[C@@H]1CN([C@@H](C)CO)C(=O)Cc2cc(NC(=O)C3CC3)ccc2O[C@H]1CN(C)C(=O)Nc1ccc(F)cc1 | i | i | i | i
CO/N=[N+](\[O-])N1CCCC(C(N)=O)C1 (stereo not drawn) | i | i | i | i
Cc1cc(C(=O)Nc2cccc3c2O[C@@H](CN(C)C(=O)Nc2c(C)noc2C)[C@H](C)CN([C@@H](C)CO)C3=O)n(C)n1 | i | i | i | i
Cc1ccc(S(=O)(=O)c2nc(-c3ccccc3)oc2NCCN2CCOCC2)cc1 | i | i | i | i
Cc1noc(C)c1NC(=O)N(C)C[C@@H]1Oc2ccc(NC(=O)Nc3ccc(F)cc3)cc2CC(=O)N([C@H](C)CO)C[C@@H]1C | i | i | i | i
CNC[C@H]1OCCCC[C@H](C)Oc2ccc(NS(=O)(=O)c3c(C)noc3C)cc2C(=O)N([C@H](C)CO)C[C@@H]1C | i | i | i | i
Cc1ccc(S(=O)(=O)Nc2ccc3c(c2)CC(=O)N([C@@H](C)CO)C[C@H](C)[C@@H](CN(C)S(=O)(=O)c2cn(C)cn2)O3)cc1 | i | i | / | i
COc1ccc(NC(=O)Nc2ccc3c(c2)C(=O)N([C@@H](C)CO)C[C@@H](C)[C@@H](CN(C)S(=O)(=O)c2ccc(OC)cc2)O3)cc1 | i | i | i | i
C[C@@H]1CCCCO[C@@H](CN(C)C(=O)Nc2cccc3ccccc23)[C@H](C)CN([C@@H](C)CO)C(=O)c2cc(N(C)C)ccc2O1 | i | i | i | i
COc1ccccc1-n1nnnc1SCC(=O)NC1CCCC1 | i | i | i | i
CC(C)C1Cc2c(sc3nc(SCC(=O)Nc4ccc(Cl)cc4Cl)nc(N)c23)CO1 (stereo not drawn) | i | i | i | i
Cc1noc(C)c1S(=O)(=O)N(C)C[C@@H]1Oc2ccc(NC(=O)NC(C)C)cc2CC(=O)N([C@H](C)CO)C[C@H]1C | i | i | i | i
O=[N+]([O-])c1ccccc1S(=O)(=O)Nc1nccs1 | i | i | i | i
COC(=O)c1sc2ncn(CC(=O)Nc3ccccc3OC)c(=O)c2c1C | i | i | i | i
Cc1ccc(CN(C)C[C@H]2OCc3cn(nn3)CCCC(=O)N([C@H](C)CO)C[C@H]2C)cc1 | i | i | i | i
CC(C)[Si](OCCCNS(=O)(=O)c1ccc(Br)cc1)(C(C)C)C(C)C | i | i | i | i
C[C@@H]1CN([C@@H](C)CO)C(=O)Cc2cc(NC(=O)Nc3cccc4ccccc34)ccc2O[C@H]1CN(C)CC1CC1 | i | i | i | i
CNC[C@H]1Oc2c(NC(=O)c3ccncc3)cccc2C(=O)N([C@H](C)CO)C[C@H]1C | i | i | i | i
C[C@@H]1CCCCO[C@H](CN(C)C(=O)Nc2cccc3ccccc23)[C@H](C)CN([C@H](C)CO)C(=O)c2cc(N(C)C)ccc2O1 | i | i | i | i
NC(=O)C1(N2CCCCC2)CCN(C(=O)CSc2nc3ccccc3o2)CC1 | i | i | i | i
O=C(Cn1ccc([N+](=O)[O-])n1)NCC1CCCO1 (stereo not drawn) | i | i | i | i
COCCNC(=O)Nc1ccc2nc(-c3ccccn3)c(-c3ccccn3)nc2c1 | i | i | i | i
Cc1ccc(Cl)cc1NC(=O)CSc1nnc(-c2ccccc2)n1-c1ccccc1 | i | i | i | i
C=C1C(O)C(O)C2(CC3C(C)=CCC4C(C)(C(=O)O)CCCC34C)OC2C1O (stereo not drawn) | i | i | i | i
CCO[C@@H]1OC(C(=O)N2CCN(Cc3ccc4c(c3)OCO4)CC2)=C[C@H](c2ccc(C(F)(F)F)cc2)[C@H]1CCCO | i | i | i | i
N#Cc1ccc(NC(=O)C2CCCCC2C(=O)O)cc1 (stereo not drawn) | i | i | i | i
COc1ccc(S(=O)(=O)N(C)C[C@@H]2Oc3ccc(NC(=O)Cn4cnnn4)cc3C(=O)N([C@H](C)CO)C[C@H]2C)cc1 | i | i | i | i
CC(=O)OC[C@H]1O[C@@H](Oc2c(-c3ccc(O)c(O)c3)oc3cc(O)cc(O)c3c2=O)[C@H](O)[C@@H](O)[C@@H]1O | i | i | i | i
C[C@@H]1CN([C@H](C)CO)C(=O)c2cc(NS(=O)(=O)c3ccc(Cl)cc3)ccc2O[C@H]1CN(C)C(=O)Nc1ccc2c(c1)OCO2 | i | i | i | i
CCOc1ccc(NC(=O)C(C)Sc2ccccn2)cc1 (stereo not drawn) | i | i | i | i
C[C@@H]1CCCCO[C@@H](CN(C)C(=O)CCC(F)(F)F)[C@H](C)CN([C@@H](C)CO)C(=O)c2cc(NC(=O)CCC(F)(F)F)ccc2O1 | i | i | i | +
NC(=O)CN1C(=O)C(O)(CC(=O)c2ccncc2)c2ccccc21 (stereo not drawn) | i | i | i | i
C[C@@H]1CN([C@@H](C)CO)C(=O)c2cc(NS(=O)(=O)c3cccs3)ccc2O[C@@H](C)CCCCO[C@@H]1CN(C)C(=O)CCC(F)(F)F | i | i | i | i
Cc1ccnc(NC(c2ccsc2)c2ccc3ccc(C)nc3c2O)c1 (stereo not drawn) | i | i | i | i
COc1cc(S(=O)(=O)Nc2cccc(C(=O)O)c2)c(OC)cc1Cl | i | i | i | i
C[C@H](CO)N1C[C@H](C)[C@@H](CN(C)S(=O)(=O)c2cccs2)Oc2c(NC(=O)NC3CCCCC3)cccc2C1=O | i | i | i | i
CSc1nc(NC2CCCC2)c([N+](=O)[O-])c(NC2CCCC2)n1 | i | i | i | i
COc1ccc(S(=O)(=O)Nc2ccc3c(c2)CC(=O)N([C@H](C)CO)C[C@@H](C)[C@@H](CN(C)S(=O)(=O)c2ccc(OC)cc2)O3)cc1 | i | i | i | i
Cc1ccc(N(CC(=O)N2CCOCC2)S(=O)(=O)c2ccccc2)cc1 | i | i | i | i
COc1cc2oc(-c3ccc(O)c(O)c3)c(OC)c(=O)c2c(O)c1OC | i | i | / | i
O=C(C1=C[C@H](c2ccc3c(c2)OCO3)C[C@H](OCCCCO)O1)N1CCN(Cc2ccccc2)CC1 | i | i | / | i
C[C@@H]1CN([C@@H](C)CO)C(=O)Cc2cc(NC(=O)Cc3cn(C)c4ccccc34)ccc2O[C@@H]1CN(C)S(=O)(=O)c1cn(C)cn1 | i | i | i | i
CNC[C@H]1Oc2c(NC(=O)NC3CCCCC3)cccc2C(=O)N([C@H](C)CO)C[C@H]1C | i | i | i | i
Cc1cc(C(=O)Nc2cccc3c2O[C@@H](CN(C)C(=O)Nc2ccccc2)[C@H](C)CN([C@H](C)CO)C3=O)n(C)n1 | i | i | i | i
C#CCNC(=O)C1=C[C@H](C2CCCCC2)[C@@H](CCCO)[C@H](OCC)O1 | i | i | i | i
C[C@@H]1CCCCO[C@@H](CN(C)Cc2ccncc2)[C@H](C)CN([C@@H](C)CO)C(=O)c2cc(NS(=O)(=O)c3ccccc3)ccc2O1 | i | i | i | i
COc1cc(C2OCC3C(c4cc(OC)c5c(c4)OCO5)OCC23)cc(OC)c1OC (stereo not drawn) | i | i | i | i
CCOC(=O)c1ccccc1NC(=O)C(C)Oc1ccc2c(C)cc(=O)oc2c1 (stereo not drawn) | i | i | i | i
C[C@@H]1CN([C@@H](C)CO)C(=O)c2cc(N(C)C)ccc2O[C@@H](C)CCCCO[C@@H]1CN(C)Cc1ccncc1 | i | i | i | i
C[C@@H]1CN([C@@H](C)CO)C(=O)c2cccc(NC(=O)c3ccc(-c4nccs4)cc3)c2O[C@H]1CN(C)C(=O)Nc1cccc2ccccc12 | i | i | i | i
COc1ccc(NC(=O)Nc2ccc3c(c2)C(=O)N([C@H](C)CO)C[C@@H](C)[C@H](CN(C)S(=O)(=O)c2cn(C)cn2)O3)cc1 | i | i | i | i
Cc1ccc(S(=O)(=O)Nc2cccc3c2O[C@H](CN(C)Cc2ccncc2)[C@@H](C)CN([C@@H](C)CO)C3=O)cc1 | i | i | / | i
COc1ccc(NC(=O)N(C)C[C@@H]2Oc3c(cccc3N(C)C)C(=O)N([C@@H](C)CO)C[C@H]2C)cc1 | i | i | i | i
O=C(O)c1ccccc1C(=O)Nc1ccc(S(=O)(=O)Nc2nccs2)cc1 | i | i | i | i
Cc1noc(C)c1S(=O)(=O)Nc1ccc2c(c1)C(=O)N([C@H](C)CO)C[C@H](C)[C@H](CN(C)C(=O)NC(C)C)OCCCC[C@@H](C)O2 | i | i | i | i

# The list goes on.
smiles | p53 mut binder | STAT3 SMM | ID4 binder | c-Myc SMM
Cc1ccc(S(=O)(=O)N(C)C[C@@H]2Oc3ccc(NS(C)(=O)=O)cc3C(=O)N([C@H](C)CO)C[C@H]2C)cc1 | i | i | i | i
C[C@H]1CN([C@@H](C)CO)C(=O)c2cc(NC(=O)Nc3ccc(C(F)(F)F)cc3)ccc2O[C@H]1CN(C)S(=O)(=O)c1cccs1 | i | i | / | i
C[C@@H]1CN([C@H](C)CO)C(=O)c2cccc(NC(=O)C3CCOCC3)c2O[C@@H]1CN(C)Cc1ccncc1 | i | i | i | i
CC1OC(OC(=O)C2=CC3(O)CC(C)(C)CC34C(C)CCC24)C(O)C(O)C1O (stereo not drawn) | i | i | / | i
Cc1noc(C)c1S(=O)(=O)Nc1ccc2c(c1)C(=O)N([C@@H](C)CO)C[C@@H](C)[C@H](CN(C)C)OCCCC[C@H](C)O2 | i | i | i | i
COc1ccc([Si](C)(C)[C@@H]2[C@@H](CCO)O[C@]3(C(=O)N(Cc4ccccc4)c4ccc(NC(C)=O)cc43)[C@H]2C)cc1 | i | i | / | i
C[C@H]1CN([C@@H](C)CO)C(=O)Cc2cc(NS(=O)(=O)c3ccc(Cl)cc3)ccc2O[C@@H]1CN(C)CC1CCCCC1 | + | i | i | +
Cc1cc(C)c(/C=C2\C(=O)Nc3ccccc32)[nH]1 | i | i | i | i
CCOCCCNc1nc2c([nH]1)c(=O)n(C)c(=O)n2C | i | i | i | i
Cc1ccc(S(=O)(=O)Nc2ccc3c(c2)C(=O)N([C@@H](C)CO)C[C@@H](C)[C@@H](CN(C)S(=O)(=O)c2ccccc2)OCCCC[C@@H](C)O3)cc1 | i | i | / | i
COc1ccc(Cn2c3ccc(Br)cc3c3nc4ccccc4nc32)cc1OC | i | i | i | +
COC(=O)c1c(O)cc(C)cc1Oc1c(O)cc(OC)cc1CO | i | i | i | i
C[C@H](CO)N1C[C@H](C)[C@@H](CN(C)Cc2ccc(C(F)(F)F)cc2)Oc2c(NS(=O)(=O)c3cccs3)cccc2C1=O | i | i | i | i
C[C@@H]1CN([C@@H](C)CO)C(=O)Cc2cc(NC(=O)NC3CCCCC3)ccc2O[C@@H]1CN(C)C(=O)Nc1ccc(F)cc1 | i | i | i | i
COc1cc(Cl)cc(C(=O)O)c1OCC(=O)O | i | i | i | i
C[C@@H]1CN([C@@H](C)CO)C(=O)c2cccc(NS(C)(=O)=O)c2O[C@H]1CN(C)C(=O)Nc1cccc2ccccc12 | i | i | i | i
Cc1cccc(OCC(=O)NC(=S)Nc2ccc(C)cc2O)c1 | i | i | i | i
CCCCOc1ccc(OCCCN2CCOCC2)cc1 | i | i | i | i
COc1ccc(S(=O)(=O)N(C)C[C@H]2Oc3ccc(NC(=O)Cc4ccccc4)cc3C(=O)N([C@@H](C)CO)C[C@H]2C)cc1 | i | i | i | i

# Retrieved by compound from the entries so far:
smiles | p53 mut binder | STAT3 SMM | ID4 binder | c-Myc SMM
C[C@@H]1CN([C@@H](C)CO)C(=O)c2cccc(NS(C)(=O)=O)c2O[C@H]1CN(C)C(=O)Nc1cccc2ccccc12 | i | i | i | i
C[C@H]1CN([C@@H](C)CO)C(=O)Cc2cc(NS(=O)(=O)c3ccc(Cl)cc3)ccc2O[C@@H]1CN(C)CC1CCCCC1 | + | i | i | +
COc1ccc(S(=O)(=O)N(C)C[C@H]2Oc3ccc(NC(=O)Cc4ccccc4)cc3C(=O)N([C@@H](C)CO)C[C@H]2C)cc1 | i | i | i | i
COc1ccc([Si](C)(C)[C@@H]2[C@@H](CCO)O[C@]3(C(=O)N(Cc4ccccc4)c4ccc(NC(C)=O)cc43)[C@H]2C)cc1 | i | i | / | i
Cc1cccc(OCC(=O)NC(=S)Nc2ccc(C)cc2O)c1 | i | i | i | i
Cc1ccc(S(=O)(=O)Nc2ccc3c(c2)C(=O)N([C@@H](C)CO)C[C@@H](C)[C@@H](CN(C)S(=O)(=O)c2ccccc2)OCCCC[C@@H](C)O3)cc1 | i | i | / | i

# Screens: PubChem BioAssay, Broad Institute
